CtBP-E1A blk: qHTS Assay for Inhibitors of the CtBP/E1A Interaction; activity change, % (test concentration not listed); AlphaScreen GST-E1A/His-CtBP binding, 1536-well; stronger effect = lower value; control for the full effect not named in the record; 340,000 compounds, 0.49% hits; CtBP / adenovirus E1A interaction (AlphaScreen); in the data active means activity change below about -65%; inconclusive means about -30% to -65%; inactive means above about -30%; further: on the % scale 0 is the no-effect control and ±100 the full control effect
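Steps: dispense buffer (Tris pH 8.0, NaCl 300 mM, TCEP 1 mM, BSA, Tween 20); add 5X protein mix (GST-E1A, His-CtBP, 125 nM each); pin 23 nL compound; 2 h at 37 °C, dark; add 5X beads (50 ug/mL); 1 h; read.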
PINK1 modulator: A Quantitative High throughput Screen to Identify Chemical Modulators of PINK1 Expression. PINK1 immunofluorescence, high-content cytometry, 24 h. Potency, µM (doses to about 76.6 µM), inactives show at the top dose activation (PINK1 increase), hits mostly activators. 410,000 compounds, 0.2% hits; active = well fitted activation curve with a large enough effect; inconclusive = small, poorly fitted or top-dose-only effect; inactive = flat fitted curve, though single readings scatter; cell line not stated here;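 further: potency means the concentration at half of the fitted maximal effect; % of control where 0% means no effect; nearly all actives have a fitted effect of over 65% in size; a mitochondrial uncoupler was the plate control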
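Stable cell line treated 24 h with compounds at 5 concentrations (CCCP controls), then fixed and immunostained for PINK1 plus nuclear and cell stains; PINK1 immunofluorescence quantified by laser-scanning microplate cytometry.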
D2 agonist: Beta-Arrestin HTS for Positive Allosteric Modulators of the Human D2 Dopamine Receptor: Agonists | D(2) dopamine receptor (Homo sapiens), P14416 | activation, % (test concentration not listed) | 360,000 compounds, 0.084% hits | AID 624465, 2012 | DiscoveRx PathHunter D2 beta-arrestin, luminescence, 90 min; 100% = 57 uM dopamine signal; in the data active = activation above about 40%; inconclusive = about 15% to 40%; inactive = below about 15%; further: compound concentration not given in the record; the text of the record calls up to 30% inactive
Target sequence (P14416 whole entry, looked up): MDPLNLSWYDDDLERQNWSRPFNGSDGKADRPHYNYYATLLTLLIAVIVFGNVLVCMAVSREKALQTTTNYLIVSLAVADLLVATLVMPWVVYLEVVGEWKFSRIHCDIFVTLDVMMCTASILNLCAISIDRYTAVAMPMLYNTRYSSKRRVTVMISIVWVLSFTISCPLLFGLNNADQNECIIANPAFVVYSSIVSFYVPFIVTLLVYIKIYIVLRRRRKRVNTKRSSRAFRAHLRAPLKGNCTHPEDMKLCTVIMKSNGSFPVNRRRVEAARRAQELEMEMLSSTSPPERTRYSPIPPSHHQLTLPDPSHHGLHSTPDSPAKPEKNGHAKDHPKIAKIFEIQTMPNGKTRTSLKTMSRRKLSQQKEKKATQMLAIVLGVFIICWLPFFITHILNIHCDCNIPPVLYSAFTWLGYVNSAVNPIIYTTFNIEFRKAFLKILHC
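DiscoveRx PathHunter D2 beta-arrestin cells (2,100/well) attached overnight, then compound-stimulated 90 min at 37 C in HBSS/10 mM HEPES/0.1% Tween-20 buffer; beta-galactosidase complementation read by luminescence after 1 h at ambient temperature. Dopamine 57 uM final (EC100) as control.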
D2 potentiator: Beta-Arrestin HTS for Positive Allosteric Modulators of the Human D2 Dopamine Receptor: Potentiators; D(2) dopamine receptor (Homo sapiens), P14416; DiscoveRx D2 beta-arrestin cells, luminescence, 90 min; 100% = 57 uM dopamine signal; potentiation, % (no concentration beside the values); 360,000 compounds, 0.23% hits; AID 624464, 2012; active = potentiation of 50% or more; inconclusive = 30% to 50%; inactive = 30% or less;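 further: compound concentration not given in the record; tested on top of an EC20 dose of dopamine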
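PathHunter D2 cells, attached overnight at 37 deg C, received compound in DMSO plus dopamine at EC20 (50 nM final) for 90 min at 37 deg C. Beta-arrestin recruitment was read as luminescence after 1 h with detection reagent at ambient temperature.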
Six1-Eya2 inh: qHTS Assay for Inhibitors of the Six1/Eya2 Interaction; Homeobox protein SIX1 (Homo sapiens) + Protein phosphatase EYA2 (Homo sapiens), …; AlphaScreen GST-Six1/His-Eya2 binding, biochemical; stronger effect = lower value; control for the full effect not named in the record; activity change, % (test concentration not listed); 360,000 compounds, 0.56% hits; in the data active = activity change below about -65%; inconclusive = about -30% to -65%; inactive = above about -30%; further: on the % scale 0 is the no-effect control and ±100 the full control effect
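Homogeneous AlphaScreen proximity assay pairing GST-Six1 with His-tagged Eya2 (added as 5X mix: 250 nM and 500 nM) in 50 mM Tris pH 8.0, 300 mM NaCl, 1 mM TCEP. Glutathione donor and nickel acceptor beads; 1 h, 37 °C, dark.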
TRPML1 agonist: qHTS for Agonists of the Human Mucolipin Transient Receptor Potential 1 (TRPML1). TRPML1-expressing cells, Ca2+ dye fluorescence, FDSS; host cell line not named in the record; reference of the full effect not given here. 410,000 compounds, 0.12% hits. Mucolipin-1 (Homo sapiens), Q9GZU1. activation, % (test concentration not listed); in the data active = activation above about 50%; inconclusive = about 30% to 50%; inactive = below about 30%; further: 0% is about no effect; the text of the record puts the active cut at 80%
Target sequence (Q9GZU1 whole entry, looked up): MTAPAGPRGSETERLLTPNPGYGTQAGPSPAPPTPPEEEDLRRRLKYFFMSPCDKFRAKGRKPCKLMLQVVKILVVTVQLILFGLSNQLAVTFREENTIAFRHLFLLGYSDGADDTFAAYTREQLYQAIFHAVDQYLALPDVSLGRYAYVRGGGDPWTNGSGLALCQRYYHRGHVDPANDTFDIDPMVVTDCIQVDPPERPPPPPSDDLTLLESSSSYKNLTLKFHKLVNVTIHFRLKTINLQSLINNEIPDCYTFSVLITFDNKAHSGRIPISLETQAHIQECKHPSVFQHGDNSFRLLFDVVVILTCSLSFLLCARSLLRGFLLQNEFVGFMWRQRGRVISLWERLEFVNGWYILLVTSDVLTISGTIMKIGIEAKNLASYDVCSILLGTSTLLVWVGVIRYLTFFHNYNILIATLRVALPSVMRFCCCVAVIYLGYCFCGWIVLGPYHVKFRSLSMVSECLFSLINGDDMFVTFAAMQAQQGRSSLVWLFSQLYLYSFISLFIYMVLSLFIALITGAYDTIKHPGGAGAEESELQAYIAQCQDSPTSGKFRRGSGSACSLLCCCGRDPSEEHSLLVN
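Cells: TRPML1-DL, 1X Tet inducer, ~16 h at 37 degrees C/5% CO2. Dye: ABD Ca8 no-wash + quencher, 45-90 min RT. Read: 10 s baseline, compound add, 110 s agonist phase; 54-4 EC80 (4uM final), 110 s antagonist phase.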
An asterisk follows results filed as active; [ ] = remark or other dose.

What do the screens show for `CC1(C(=O)O)CCC(C(=O)NC2CCCCCC2)C1(C)C` (configuration not stated)?
CtBP-E1A blk: 10; PINK1 modulator: inconclusive; D2 agonist: 2.3; D2 potentiator: 6; Six1-Eya2 inh: 3; TRPML1 agonist: 0.1

What do the screens show for `Cc1nccn1-c1ncnc2sc3c(c12)CCCC3`?
CtBP-E1A blk: 5; D2 agonist: -1.7; D2 potentiator: -1; Six1-Eya2 inh: 2; TRPML1 agonist: -0.1

Results for O=C1c2oc3ccccc3c(=O)c2C(c2cccc(O)c2)N1CCCN1CCOCC1 (configuration not stated) ?
CtBP-E1A blk: 1; PINK1 modulator: -3.6%; D2 agonist: -0.6; D2 potentiator: 6; Six1-Eya2 inh: -8; TRPML1 agonist: 3.3

How did Cc1cccc(NC(=O)NCCc2c[nH]c3ccccc23)c1 do in these assays?
CtBP-E1A blk: -18; PINK1 modulator: 1.9%; D2 agonist: -1.5; D2 potentiator: -3; Six1-Eya2 inh: -22; TRPML1 agonist: 2.9

What do the screens show for `Cc1ccc(OC(C)c2nnc(N)s2)cc1Cl` (configuration not stated)?
CtBP-E1A blk: 9; PINK1 modulator: 4.8%; D2 agonist: -3.3; D2 potentiator: 2; Six1-Eya2 inh: 7; TRPML1 agonist: 0.0

What do the screens show for `Cc1cc(Cl)c(S(N)(=O)=O)cc1OCC(=O)NC1CCCCC1`?
CtBP-E1A blk: -4; PINK1 modulator: 3.4%; D2 agonist: 0.8; D2 potentiator: -2; Six1-Eya2 inh: 2; TRPML1 agonist: 0.0

Results for CSc1ccccc1C(=O)NCC1CCCO1 (configuration not stated) ?
CtBP-E1A blk: 6; PINK1 modulator: inconclusive; D2 agonist: 0.1; D2 potentiator: -3; Six1-Eya2 inh: 0; TRPML1 agonist: 0.7

What do the screens show for `COc1ccc(N=c2ssnc2Cl)cc1`?
CtBP-E1A blk: -3; PINK1 modulator: -0.7%; D2 agonist: -8.7; D2 potentiator: -16; Six1-Eya2 inh: 5; TRPML1 agonist: -0.2

How did COc1ccc(N2CCN(C(=O)c3cc(=O)c4cc(C)c(C)cc4o3)CC2)cc1 do in these assays?
CtBP-E1A blk: -8; PINK1 modulator: 8.3%; D2 agonist: -2.8; D2 potentiator: 7; Six1-Eya2 inh: 2; TRPML1 agonist: -0.1

Results for C=CCOc1c(Br)cc(CNn2nnnc2N)cc1OC ?
CtBP-E1A blk: 4; PINK1 modulator: 3.3%; D2 agonist: 0.2; D2 potentiator: 6; Six1-Eya2 inh: 1; TRPML1 agonist: -0.6

Results for NS(=O)(=O)c1ccc(CCNS(=O)(=O)c2ccc(Cl)nc2)cc1 ?
CtBP-E1A blk: 11; PINK1 modulator: -0.4%; D2 agonist: -1.9; D2 potentiator: 4; Six1-Eya2 inh: 7; TRPML1 agonist: -0.2

What do the screens show for `CC(C)NS(=O)(=O)c1ccc(NC(=O)CCc2ccccc2)cc1`?
CtBP-E1A blk: 43; PINK1 modulator: inconclusive; D2 agonist: -1.1; D2 potentiator: -10; Six1-Eya2 inh: 21; TRPML1 agonist: 0.1

Results for CCOC(=O)NC(=O)CSc1nc(C)cc(C(F)(F)F)c1C#N ?
CtBP-E1A blk: -1; PINK1 modulator: -3.3%; D2 agonist: -1.1; D2 potentiator: -7; Six1-Eya2 inh: 0; TRPML1 agonist: 0.3

What do the screens show for `Cc1[nH]n(-c2cccc(Cl)c2)c(=O)c1C=NCC(C)C`?
CtBP-E1A blk: 5; PINK1 modulator: 3.6%; D2 agonist: 9.5; D2 potentiator: 2; Six1-Eya2 inh: 0; TRPML1 agonist: -0.9

What do the screens show for `COc1ccc(C(=O)C(OC(=O)c2ccccc2Cl)c2ccccc2)cc1` (configuration not stated)?
CtBP-E1A blk: -4; PINK1 modulator: 0.3%; D2 agonist: -0.3; D2 potentiator: -2; Six1-Eya2 inh: -11; TRPML1 agonist: 0.4

How did COC(=O)c1cc(S(=O)(=O)N(C)c2ccc(C)c(C)c2)c[nH]1 do in these assays?
PINK1 modulator: 1.7%; D2 agonist: 1.1; D2 potentiator: -6; Six1-Eya2 inh: 10; TRPML1 agonist: 1.7

How did CCN(C(=O)COC(=O)c1nc(Cl)ccc1Cl)c1c(N)n(Cc2ccccc2)c(=O)[nH]c1=O do in these assays?
PINK1 modulator: 1.9%; D2 agonist: -0.4; D2 potentiator: 2; Six1-Eya2 inh: -15; TRPML1 agonist: -0.2

Results for CN(CC(=O)Nc1ccc(F)c(F)c1F)C(=O)C1=COCCO1 ?
CtBP-E1A blk: 0; PINK1 modulator: -0.9%; D2 agonist: 4.7; D2 potentiator: -9; Six1-Eya2 inh: 3; TRPML1 agonist: 0.0

Results for CC(C)C(c1nnnn1CCc1ccccc1)N1CCN(C(=O)c2ccco2)CC1 (configuration not stated) ?
CtBP-E1A blk: -1; PINK1 modulator: 0.5%; D2 agonist: -2.5; D2 potentiator: -6; Six1-Eya2 inh: 6; TRPML1 agonist: 0.3

Results for NS(=O)(=O)c1cccc(NC(=S)NC(=O)C23CC4CC(CC(C4)C2)C3)c1 ?
CtBP-E1A blk: -7; PINK1 modulator: -0.3%; D2 agonist: -0.7; D2 potentiator: -6; Six1-Eya2 inh: -9; TRPML1 agonist: 0.4

Results for N=c1ncn(Cc2ccccc2)c2nc(SCCOc3ccccc3)[nH]c12 ?
CtBP-E1A blk: 0; PINK1 modulator: 9.1%; D2 agonist: 0.8; D2 potentiator: -8; Six1-Eya2 inh: 0; TRPML1 agonist: 0.4

What do the screens show for `Cc1ccc(S(=O)(=O)N2CCC(C(=O)Nc3ccccc3N3CCCCC3)CC2)cc1C`?
CtBP-E1A blk: -1; PINK1 modulator: -0.9%; D2 agonist: -2.9; D2 potentiator: -7; Six1-Eya2 inh: -5; TRPML1 agonist: 0.6

What do the screens show for `CC(C)CCN1NC2(CCCC(C)C2)NC1=S` (configuration not stated)?
CtBP-E1A blk: -4; PINK1 modulator: 0.7%; D2 agonist: -0.2; D2 potentiator: 3; Six1-Eya2 inh: 0; TRPML1 agonist: -0.1

What do the screens show for `N#CC1=C2SCN(Cc3ccco3)CN2C(=O)CC1c1ccccc1F` (configuration not stated)?
CtBP-E1A blk: -2; PINK1 modulator: 6.5%[38.3 µM]; D2 agonist: 2.6; D2 potentiator: 6; Six1-Eya2 inh: 0; TRPML1 agonist: 0.1

What do the screens show for `OCc1ccccc1OCCOc1ccc(Cl)c2cccnc12`?
CtBP-E1A blk: 0; PINK1 modulator: 0.4%[38.3 µM]; D2 agonist: -1.9; D2 potentiator: -6; Six1-Eya2 inh: -4; TRPML1 agonist: 0.6

How did O=C1c2ccccc2S(=O)(=O)N1Cc1cccc(S(=O)(=O)N2CCOCC2)c1 do in these assays?
CtBP-E1A blk: 2; PINK1 modulator: -0.1%; D2 agonist: -1.8; D2 potentiator: -4; Six1-Eya2 inh: 0; TRPML1 agonist: -0.5

What do the screens show for `O=C(CCC1CCN(C(=O)Cc2c(F)cccc2F)CC1)NC1CC1`?
CtBP-E1A blk: 1; PINK1 modulator: -0.9%; D2 agonist: 8.4; D2 potentiator: -11; Six1-Eya2 inh: 1; TRPML1 agonist: 2.4

Results for Cn1nc(C(=O)Nc2ccccc2N2CCOCC2)ccc1=O ?
CtBP-E1A blk: 11; PINK1 modulator: -1.1%; D2 agonist: -2.1; D2 potentiator: -19; Six1-Eya2 inh: 4; TRPML1 agonist: 0.2

Results for CCOC(=O)c1sc(=S)n(C)c1C ?
CtBP-E1A blk: 9; PINK1 modulator: -1.5%; D2 agonist: 0.1; D2 potentiator: -8; Six1-Eya2 inh: 2; TRPML1 agonist: 1.1

Results for CC1CCCC(C(=O)OCc2ccccc2)N1 (configuration not stated) ?
CtBP-E1A blk: 1; PINK1 modulator: -0.9%; D2 agonist: -1.7; D2 potentiator: -10; Six1-Eya2 inh: 6; TRPML1 agonist: 0.9

What do the screens show for `CC(=O)Nc1ccc(NC(=O)CN(c2ccc([N+](=O)[O-])cc2)S(=O)(=O)c2ccccc2)cc1`?
PINK1 modulator: 5.1%; D2 agonist: -2.7; D2 potentiator: -4; Six1-Eya2 inh: 9; TRPML1 agonist: 0.4

What do the screens show for `Cn1cc(C(=O)Nc2ccccn2)c(=O)c2ccccc21`?
CtBP-E1A blk: 5; PINK1 modulator: 1.3%; D2 agonist: 9.9; D2 potentiator: 7; Six1-Eya2 inh: 0; TRPML1 agonist: 0.8

Results for O=C1CS/C(=N/N=C2C3CC4CC(C3)CC2C4)N1 ?
CtBP-E1A blk: -4; PINK1 modulator: -0.3%; D2 agonist: -4.3; D2 potentiator: -17; Six1-Eya2 inh: -3; TRPML1 agonist: -0.5

How did COc1ccc(C(=O)NCC(=O)NCC(=O)OCC(=O)c2cccs2)cc1 do in these assays?
CtBP-E1A blk: -8; PINK1 modulator: -0.6%; D2 agonist: -12; D2 potentiator: -7; Six1-Eya2 inh: -5; TRPML1 agonist: 0.1

What do the screens show for `COc1cccc(C2C(C(=O)/C=C/c3ccco3)=C(O)C(=O)N2CCN2CCOCC2)c1` (configuration not stated)?
CtBP-E1A blk: -2; PINK1 modulator: 0.7%; D2 agonist: 3.6; D2 potentiator: -1; Six1-Eya2 inh: -7; TRPML1 agonist: 0.2

What do the screens show for `CCCS(=O)(=O)N1CCN(Cc2c[nH]c3ccccc23)CC1`?
CtBP-E1A blk: -10; PINK1 modulator: -0.7%; D2 agonist: -2.7; D2 potentiator: -10; Six1-Eya2 inh: 4; TRPML1 agonist: 0.1

How did COc1ccccc1S(=O)(=O)CC(O)COc1ccc(F)cc1Cl (configuration not stated) do in these assays?
CtBP-E1A blk: -10; PINK1 modulator: -0.5%; D2 agonist: 5.9; D2 potentiator: -8; Six1-Eya2 inh: 3; TRPML1 agonist: -0.5

Fetched by structure from the entries so far (2):
What do the screens show for `CC(C)CCN1NC2(CCCC(C)C2)NC1=S` (configuration not stated)?
CtBP-E1A blk: -4; PINK1 modulator: 0.7%; D2 agonist: -0.2; D2 potentiator: 3; Six1-Eya2 inh: 0; TRPML1 agonist: -0.1

How did COc1ccc(C(=O)NCC(=O)NCC(=O)OCC(=O)c2cccs2)cc1 do in these assays?
CtBP-E1A blk: -8; PINK1 modulator: -0.6%; D2 agonist: -12; D2 potentiator: -7; Six1-Eya2 inh: -5; TRPML1 agonist: 0.1

Screens (PubChem)

No enrichment for hits. About 1.3% of those tested had a hit in this group.
